# TAR Tat displ: HIV-1 TAR-Tat binding disruption; z-score (concentration not given with the values); HIV-1 TAR RNA, Tat peptide displacement FRET; active compounds read high; 100,000 compounds, 0.6% hits; AID 1259389;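 also: score is relative to mean and SD of negative controls; some compounds called inactive have numbers as strong as hits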
# CDC25B CDK2 inh: human CDC25B-CDK2/CyclinA binding inhibition. 94,000 compounds, 0.72% hits. z-score (concentration not given with the values). HTRF CDC25B-CDK2/CyclinA binding, anti-His/anti-Flag; active compounds read high;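 also: score is relative to mean and SD of negative controls; strong numbers were not always called active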
# An asterisk follows results filed as active; / = not tested or not shown.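 The calls were made as follows: active = z-score from 3 up in half or more of its runs; inactive = the rest.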
# Every second line gives: TAR Tat displ | CDC25B CDK2 inh
CCc1ccc(C2N3CC4(C)CN2CC(c2ccccc2)(C3)C4=O)cc1 (stereo not drawn)
 : 0.34 | -0.42
Cc1ccc(S(=O)(=O)c2cn(Cc3ccc(Cl)cc3)c3nc(C)ccc3c2=O)cc1
 : -1.04 | /
CN1CCN(CCCNC(=O)c2ccc(-n3ccc4ccccc43)s2)CC1
 : 0.21 | /
Cc1ccc(CNC(=O)c2cc(S(=O)(=O)N3CCOCC3)cn2C)o1
 : 0.5 | /
CCOC(=O)C1CCN(C(=O)CCS(=O)(=O)c2ccc3c(c2)oc(=O)n3C)CC1
 : -0.54 | /
COC(=O)CN1C(C(=O)c2ccccc2)=C(OC(=O)c2ccccc2)c2ccccc2S1(=O)=O
 : 1.71 | -2.43
CCOC(=O)CC(=O)c1cccc([N+](=O)[O-])c1
 : / | -0.44
Nc1nc(Nc2ccccc2)nc(NCc2ccccc2)c1[N+](=O)[O-]
 : 0.11 | -0.9
O=C(N/N=C/c1c[nH]c2ccccc12)c1cc(C23CC4CC(CC(C4)C2)C3)[nH]n1
 : / | -1.83
Cc1c(-c2ccc(F)cc2)[n+](=O)c2c(n1[O-])CCC2
 : / | -3.84
Cc1cccc(C)c1NS(=O)(=O)c1ccc2nc(-c3ccccc3)[nH]c2c1
 : / | -2.63
C=CCOC(=O)C1=C(C)Nc2nc(SCC=C)[nH]c(=O)c2C1c1cccc(F)c1 (stereo not drawn)
 : 2.09 | -1.88
CCCOC(=O)c1ccc2c(c1)C(=O)NC2=O
 : 1.02 | -0.66
O=C(NCc1ccco1)c1ccc2c(=O)n(C3CCCCC3)c(=S)[nH]c2c1
 : / | -2.91
Nc1nonc1-c1nc2ccccc2n1Cc1ccc(Cl)cc1
 : -0.67 | -0.53
O=C(NCc1ccccc1Cl)NCc1noc2ccccc12
 : -1.63 | /
CCOc1ccc(-n2nnnc2CNC(=O)Nc2ccc3c(c2)OCO3)cc1
 : 1.4 | /
Cn1c(=O)oc2cc(NC(=O)NC3CCCC3)ccc21
 : -0.24 | /
Cc1cc(F)ccc1S(=O)(=O)N(C(=O)c1cccnc1)c1ccc2oc(=O)sc2c1
 : 1.13 | -3.34
COc1ccc2c(c1)CC(C(=O)N1CCN(c3ncccn3)CC1)CO2 (stereo not drawn)
 : 0.31 | /
CC1(C)CC[C@]2(C(=O)O)CC[C@]3(C)C(=CCC4[C@@]5(C)CC[C@H](O)[C@@](C)(CO)C5CC[C@]43C)C2C1 (stereo partly drawn)
 : 1.1 | /
COc1ccccc1-n1cnc2c(sc3nc(N4CCOCC4)c4c(c32)CC(C)(C)OC4)c1=O
 : 0.47 | -0.67
O=S(=O)(c1cccc2nsnc12)N1CCCC1c1cccc(F)c1 (stereo not drawn)
 : 0.52 | -0.53
CC(C)c1ccc(N2C(=O)CC(N3CCN(Cc4ccc5c(c4)OCO5)CC3)C2=O)cc1 (stereo not drawn)
 : 0.57 | -0.93
COc1ccc(C2=CC(=O)OC3(CCCC3)O2)cc1
 : / | -0.82
Nc1ccccc1NC(=S)Nc1ccccc1C(F)(F)F
 : / | -3.51
CNC(=O)C1CCC(Cn2c(=O)c3sccc3n(CC(=O)N3CCC(C)CC3)c2=O)CC1 (stereo not drawn)
 : -0.67 | /
O=C(NCCc1ccc(Cl)cc1)c1cnc2sc3c(n2c1=O)CCCC3
 : 1.26 | /
Cc1ccc(C)c(S(=O)(=O)n2nc(C)c(S(=O)(=O)N3CCCC3)c2C)c1
 : 1.1 | /
O=C(O)c1cccn1Cc1ccc(Cl)cc1
 : / | -1.08
COc1cccc2cc(-c3nnc(SCC(=O)N4CCCc5ccccc54)n3C)oc12
 : 1.33 | /
CCOc1cc(C2C(C(=O)OC)=C(C)NC3=C2C(=O)CC(c2ccccc2)C3)cc(Cl)c1O (stereo not drawn)
 : -0.16 | -0.79
CCCN(C(=O)Cn1c(=O)oc2ccccc21)c1ccccc1F
 : 0.06 | /
Cn1c2c(c(=O)n(C)c1=O)C1c3ccccc3OCC1C(C)(C)O2 (stereo not drawn)
 : / | 0.49
O=c1c(NCCN2CCN(Cc3ccccc3)CC2)c(-c2ccccc2)c1=O
 : -1.58 | /
COc1ccc(OC)c(C2N(c3cccc(Cl)c3)C(=O)C3CCCN32)c1 (stereo not drawn)
 : -1.74 | -2.22
CCOC(=O)Cc1c(C(=O)OCC)nnc2c(-c3ccc(OC)cc3)c(C)nn12
 : 0.4 | 0.56
COc1ccc(C)cc1C(=O)C1CC(C(=O)O)C(C)(C)C1C (stereo not drawn)
 : 0.63 | 2.01
CC(CS(=O)(=O)c1ccc2c(c1)NC(=O)C(C)S2)C(=O)Nc1ccc(Cl)cc1 (stereo not drawn)
 : -0.77 | /
O=C1CC(c2ccccc2Br)c2cnn(-c3nc4ccccc4s3)c2N1 (stereo not drawn)
 : 1.94 | /
O=C(Cn1ncc2c3ccccc3n(Cc3ccccc3)c2c1=O)N1CCC(N2CCCCC2)CC1
 : 13.3 | -2.24
COC(=O)C1=C2CC=CC2C(C(=O)OC)C1=O (stereo not drawn)
 : / | -1.78
O=C(CCc1nc2sc3c(c2c(=O)[nH]1)CCCC3)Nc1ccccc1Cl
 : 0.44 | -2.3
COc1ccc(C2CC(=O)C3=C(C2)Nc2ccccc2NC3c2ccc(SC)cc2)cc1OC (stereo not drawn)
 : 3.66 | -1.49
CCCCCCC1OCC2(CO1)C(C)C=C(C)CC2C (stereo not drawn)
 : / | -0.18
O=C(Nc1cccc(Cl)c1)C1CCCN(S(=O)(=O)c2cnc[nH]2)C1 (stereo not drawn)
 : / | 1.02
CC(Oc1ccc(F)cc1)C(=O)Oc1ccc(-n2cnnn2)cc1 (stereo not drawn)
 : -0.9 | -1.4
CCC1(C)NC(=S)N(c2ccc(Cl)cc2)N1 (stereo not drawn)
 : / | -1.14
O=C(c1ccccc1)C1CN(Cc2ccccc2)CCC1(O)c1ccccc1 (stereo not drawn)
 : 1.12 | 0.57
COc1ccc(Nc2ncc3c(n2)CCN(Cc2cccn2C)C3)c(OC)c1
 : 0.24 | /

# Ordered by number of heavy atoms (low to high): part of the list above
# Every second line gives: TAR Tat displ | CDC25B CDK2 inh
COC(=O)C1=C2CC=CC2C(C(=O)OC)C1=O (stereo not drawn)
 : / | -1.78
O=C(c1ccccc1)C1CN(Cc2ccccc2)CCC1(O)c1ccccc1 (stereo not drawn)
 : 1.12 | 0.57
COc1ccc(C2CC(=O)C3=C(C2)Nc2ccccc2NC3c2ccc(SC)cc2)cc1OC (stereo not drawn)
 : 3.66 | -1.49

# Next section
# Every second line gives: TAR Tat displ | CDC25B CDK2 inh
Nc1cc(-c2ccc(Cl)cc2)nc(N)n1
 : / | -0.49
COC(=O)c1sc(N2CCCC2)c(C#N)c1-c1cccs1
 : / | -8.31
CC(=O)c1cccc(Nc2nc(-c3ccc(Br)cc3)cs2)c1
 : / | -9.58
CN1C(=O)c2ccccc2C(C(=O)N2CCCCC2)C1c1cccs1 (stereo not drawn)
 : 1.73 | -0.69
CCC(Sc1nnc(C)n2c1cc1occc12)C(=O)Nc1ccc(C)c(Cl)c1 (stereo not drawn)
 : -3.18 | /
O=c1c2cc3c(cc2nc(SCc2ccc(Cl)cc2)n1Cc1ccco1)OCO3
 : / | -1.4
NC(N)=[N+]1CCc2ccccc2C1
 : / | 0.73
COc1cc(Nc2nc(-c3cccc(OC)c3OC)no2)cc(OC)c1
 : -0.46 | /
CCOC(=O)c1c(NC(C)=O)c2c3c(sc2n1Cc1cc(=O)n2ccccc2n1)CCCC3
 : 1.33 | /
Cc1ccc(-c2noc(CN(C(=O)N3CCOCC3)C(C)C)n2)cc1
 : 0 | 0.14
COc1ccc(OC)c(C2C(C(=O)OC(C)C)=C(C)NC3=C2C(=O)CCC3)c1 (stereo not drawn)
 : 1.17 | -1.04
CCOC(=O)C1CCN(S(=O)(=O)c2cc(Br)cnc2N)CC1
 : 1.18 | -1.3
O=C(CN1C(=O)c2cccnc2Sc2ccccc21)NCCCN1CCc2ccccc2C1
 : 0.32 | /
CCCc1[nH]c(=O)c(C#N)cc1C(=O)O
 : -0.52 | -0.78
Cc1ccccc1-n1nnnc1-c1ccccc1
 : 1.02 | -2.42
Fc1ccc(N2CCN(Cc3cccn3-c3nnc(N4CCCC4)s3)CC2)cc1
 : 1.08 | /
CC(=O)NC(c1ccc(C(C)C)cc1)c1ccc2cccnc2c1O (stereo not drawn)
 : / | -0.14
COCCN(CCOC)C(=O)C(=O)c1c[nH]c2ccccc12
 : / | -1.57
CCOC(=O)c1c(C)cn(CC)c1CC(=O)O
 : 2.61 | -1.29
CCCCN(C)C(=O)Cc1c(C(=O)O)[nH]c2ccc(Cl)cc12
 : / | 0.64
CCC(C(=O)NCCCN1CCN(C)CC1)n1nc(C)c2sc3ccccc3c2c1=O (stereo not drawn)
 : 0.57 | -3.24
CCc1ccc(NS(=O)(=O)c2cc(/C=C/c3onc(C)c3[N+](=O)[O-])ccc2C)cc1
 : 1.06 | /
Cc1cc(OCCN(C)C)nc(NCc2ccccc2)n1
 : / | 1.15
O=C(CSc1nccn2nc(-c3ccc(Cl)cc3)cc12)Nc1nccs1
 : 0.76 | /
O=C(OCc1ccccc1)c1ccccc1
 : -0.51 | /
O=C1CC(c2ccc(Cl)cc2)CC2=C1C(c1cccs1)n1c(nc3ccccc31)N2 (stereo not drawn)
 : 1.78 | -0.86
COc1ccc(NC(=O)CSc2nn3c(=O)c(C(C)(C)C)nnc3s2)c(OC)c1
 : 0.34 | /
CC(C)COC(=O)C1C2C=CC3(CN(CC4CCCO4)C(=O)C13)O2 (stereo not drawn)
 : / | 0.63
CN(C)c1ccc(C2C=C(c3ccccc3)Nc3ncnn32)cc1 (stereo not drawn)
 : 1.08 | 1.59
CC1CCc2c(cnc3c(C(=O)NCc4ccco4)cnn23)C1 (stereo not drawn)
 : -0.74 | /
COC(=O)c1sccc1NC(=O)NC(c1ccccc1)c1nnc(-c2ccccc2Cl)o1 (stereo not drawn)
 : 1.25 | /
Clc1cccc(-c2noc3ncnc(NCc4ccco4)c23)c1
 : -0.37 | /
Cc1cn([C@H]2C[C@@H](N=[N+]=[N-])[C@@H](CO)O2)c(=O)[nH]c1=O
 : / | -0.37
Cn1nc(C(=O)Nc2ccccc2)c(Br)c1C(=O)Nc1ccccc1
 : -1.57 | -5.7
CC(C)Cc1nn2c(=O)cc(COc3cccc(NC(=O)C(C)Oc4ccccc4)c3)nc2s1 (stereo not drawn)
 : -0.41 | -2.16
CCOC(=O)C1CCN(C(=O)c2scc(S(=O)(=O)c3ccc(Cl)cc3)c2C)CC1
 : / | -1.26
CCOC(=O)N1CCN(C(=O)C2=C(C)C(=O)OC23CCN(S(C)(=O)=O)CC3)CC1
 : 0.88 | /
c1ccc(CN2CCN(C3CCN(Cc4ccccn4)CC3)CC2)cc1
 : -0.8 | 0.21
COc1ccc(C2CC(=O)Nc3c2cnn3-c2nc3ccccc3s2)cc1Br (stereo not drawn)
 : 2.49 | /
O=C1CC(c2nc3ccccc3[nH]2)CN1c1cccc(Cl)c1 (stereo not drawn)
 : 2.71 | -0.34

# Quoted at random: 5 entries already listed
# Every second line gives: TAR Tat displ | CDC25B CDK2 inh
CCOC(=O)C1CCN(C(=O)CCS(=O)(=O)c2ccc3c(c2)oc(=O)n3C)CC1
 : -0.54 | /
NC(N)=[N+]1CCc2ccccc2C1
 : / | 0.73
O=C(N/N=C/c1c[nH]c2ccccc12)c1cc(C23CC4CC(CC(C4)C2)C3)[nH]n1
 : / | -1.83
CCOc1cc(C2C(C(=O)OC)=C(C)NC3=C2C(=O)CC(c2ccccc2)C3)cc(Cl)c1O (stereo not drawn)
 : -0.16 | -0.79
COC(=O)CN1C(C(=O)c2ccccc2)=C(OC(=O)c2ccccc2)c2ccccc2S1(=O)=O
 : 1.71 | -2.43

# (further entries)
# Every second line gives: TAR Tat displ | CDC25B CDK2 inh
CC(=O)N1N=C(COc2ccc(C)cc2)OC1c1ccc(Br)cc1 (stereo not drawn)
 : 1.95 | /
CN1CCc2c(sc3c2C(=O)NC(c2ccc(OC(=O)c4cccs4)cc2)N3)C1 (stereo not drawn)
 : 0.42 | -1.27
Fc1ccc(-c2nn3c(C4COc5ccccc5O4)nnc3s2)cc1 (stereo not drawn)
 : 1.73 | -2.07
Cc1cccc2c1Oc1[nH]c(-c3ccc(O)cc3)nc(=S)c1C2
 : 1.69 | -1.06
CC1=C(c2cccc(Br)c2)S(=O)(=O)N=C1N1CCC(C)CC1
 : 1.28 | -1.81
O=C(Nc1ccc(F)cc1)C1CCC(CNc2c(N3CCCCC3)c(=O)c2=O)CC1 (stereo not drawn)
 : 1.3 | 0.45
O=C(CN1C(=O)c2cccnc2Oc2ccc(Cl)cc21)NCCC1=CCCCC1
 : 1.99 | /
CC1CCCCC1NC(=O)Cn1c(=O)oc2cc(S(=O)(=O)N3CCCC3)ccc21 (stereo not drawn)
 : 1.63 | -0.18
O=S(=O)(NCCc1c[nH]c2ccccc12)c1cccc2nsnc12
 : / | -1.04
CC1CCCCC1NC(=O)CCS(=O)(=O)c1cc(Br)cc2c1N(C(=O)C1CC1)CC2 (stereo not drawn)
 : 1.22 | -1
COCCOC(=O)c1cnn2c(C(F)(F)F)cc(-c3ccc(OC)c(OC)c3)nc12
 : 1.29 | -0.88
O=C(C1CCN(S(=O)(=O)c2cnc[nH]2)CC1)N1CCC(N2CCCCC2)CC1
 : -0.17 | 0.53
COc1cccc(C2C(C#N)=C(N)Oc3n[nH]c(-c4ccc(Br)cc4)c32)c1OC (stereo not drawn)
 : 0.29 | -3.78
O=C(Nc1ccc(F)cc1F)c1ccc2cccc(O)c2n1
 : 2.65 | -2.11
O=C(c1cnn(-c2ccccc2)c1-n1cccc1)N1CCC(C(=O)N2CCCC2)CC1
 : -1.24 | 0.23
CN1CCN(CCCNC(=O)CN2C(=O)c3cccnc3Sc3ccccc32)CC1
 : 0.91 | /
COc1ccccc1N1CCN(C(=O)Nc2ccc(C)cc2)CC1
 : / | -2.45
CCc1c(O)c(Cc2ccccc2)c(=O)n(-c2nccs2)c1-c1ccccc1
 : / | -1.22
